Bioassay records deposited in PubChem BioAssay by ICCB-Longwood Screening Facility, Harvard Medical School.
MgrA-DNA mod = S. aureus MgrA-DNA binding modulation; AID 602314; actives 0.13% (n = 84,000); inhibition, %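 (about 10 µg/mL by stock and volumes)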; fluorescence polarization;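 active means above 50% in either of two replicates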;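 further: 0% = protein plus DNA without compound and 100% = DNA alone without protein; higher means less MgrA bound to DNA so lower polarization; one replicate is shown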
S aureus helic = S. aureus DNA helicase inhibition; purified S. aureus helicase, fluorescence unwinding assay; about half of the hits fall short of the stated cut; inhibition, %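 (tested at about 80 µM)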; actives 0.05% (n = 120,000); AID 485395;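 active means both duplicates at 50% or more, or one of them with a favoured structure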;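 further: 0% = mean of negative control wells and 100% = mean of positive control wells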
Starred values were filed as active, the others as inactive; . = not tested or not shown. These rows are one share of the data (hit frequency here may not be typical).

canonical_smiles	MgrA-DNA mod	S aureus helic
CC(=Nc1ccccc1)C1=C(O)COC1=O	1.6	1
CC(C)(CN1CCN(C(c2ccccc2)c2ccccc2)CC1)NS(=O)(=O)c1ccccc1	-0.7	5
O=C1CN(C(=O)c2ccc(Br)cc2)c2ccccc2N1	0.5	-1
O=C(O)CCn1nnc(-c2cccs2)n1	5.2	7
CC1CC(C)CN(C(=O)CSc2nnc(SCC(=O)N3CC(C)CC(C)C3)n2N)C1 (centres undefined)	.	-1
Cc1ccc(C(=O)OCCOc2ccc(Br)cc2)cc1	-1.2	8
c1csc(C2Nc3ccccc3N2)c1	3.5	.
CC(NS(C)(=O)=O)C(c1cccs1)N1CCN(C)CC1 (centres undefined)	.	-13
CC(C)C(=O)NC(=S)Nc1ccc2oc(-c3cccnc3)nc2c1	4.0	9
CCC(NC(=O)NCc1ccc2c(c1)OCO2)(C(F)(F)F)C(F)(F)F	-0.8	5
O=C(Cn1nnc(N2CCCCC2)n1)N/N=C/c1cccnc1	.	24
O=C(CSc1nccc(-c2csc(COc3ccccc3Cl)n2)n1)c1ccccc1	-2.1	.
Nc1cc(Cl)ccc1Nc1ccncc1	-2.3	.
O=C1CN(C(=O)Cc2ccc(F)cc2)C(c2ccc(F)cc2)c2cc(F)ccc2N1 (centres undefined)	-1.1	7
O=C(Oc1ccccc1N1CCOCC1)c1cccnc1Sc1ccc(Cl)cc1	0.2	.
O=C1C(Cc2c[nH]c3ccccc23)NC(=S)N1c1ccccc1Cl (centres undefined)	-2.5	-11
CN(C)/C=C/C(=O)c1cc(OCC(F)(F)F)ccc1OCC(F)(F)F	1.8	.
COC(=O)c1ccc(Cl)cc1NC(C)=O	-0.7	.
CCn1c(-c2ccccc2)csc1=Nc1ccc2[nH]c(=O)[nH]c2c1	.	11
O/N=C1\CCCCC1C1=CCCCC1 (centres undefined)	5.1	0
COC(=O)c1ccc(-c2cccs2)nc1C	-3.4	.
COc1ccc(S(=O)(=O)Nc2ccc(C#N)cc2)cc1OC	0.0	.
O=C1c2c(O)cccc2Cc2cccc(O)c21	5.9	.
CCOc1ccc2c(-c3ccccc3)cc(=O)oc2c1	-3.4	11
COc1ccc(N2Cc3cccc(C(=O)NCCC4=CCCCC4)c3C2=O)cc1	14	10
COc1ccc(O)c(C(=O)c2cnn(-c3nnc(C)c(=O)[nH]3)c2)c1	.	-15
O=C(O)CCNC(=S)Nc1ccccc1C(F)(F)F	-0.4	.
Nc1nnc(C23CC4CC(CC(C4)C2)C3)s1	.	28
C=CCN1C(=O)NC(=O)/C(=C/c2cccc(OCc3ccccc3Cl)c2)C1=O	7.0	.
Cc1ccc2oc(=O)cc(CN(C)CCO)c2c1	.	4
S=C(c1ccccc1)N1CCOCC1	-2.1	-5
CC(C)OCCCn1c(=O)c2ccccc2n2c(CCC(=O)Nc3ccccc3)nnc12	.	-16
CC1=CC(=C(C#N)c2nc3ccccc3s2)C=C(C)N1CC1CCCO1 (centres undefined)	.	-78
N#C/C(=C\Nc1ccc2c(c1)OCCO2)c1nc2ccccc2[nH]1	2.0	-6
COc1ccc(NCc2nnc(SCC(N)=O)n2-c2ccc(C)cc2)cc1	0.2	18
O=C(COC(=O)CN1C(=O)c2ccccc2C1=O)Nc1ccccc1	.	-12
CCOc1ccc(N)cc1OCC	0.8	19
CC(C)CCn1c(=O)c2ccccc2n2c(CCC(=O)NCc3cccnc3)nnc12	.	-14
CCOC(=O)c1c(NC(=O)c2cc3ccccc3c(=O)o2)sc2c1CCCCCC2	1.3	4
Cc1ccc(Sc2cn[nH]c2C)cc1	-0.7	.
C=CCN1/C(=C\CO)[C@@H]2C[C@@H]3[C@H]1CC[C@@]31c3ccccc3N3/C=C4\C5N(/C=C/2C31)c1ccccc1[C@@]51CC[C@@H]2[C@H]1C[C@H]4/C(=C/CO)N2CC=C (some centres undefined)	1.2	.
Cc1ccc2c(c1)N(C(=O)N1CCCC(C(=O)NCc3ccc(Cl)cc3)C1)CC(C)O2 (centres undefined)	.	30
CN1C(=O)CC(Nc2ccc(N(C)C)cc2)C1=O (centres undefined)	.	2
CCCC(CCC)C(=O)Nc1ccc(NC(=O)c2ccco2)cc1	3.1	-16
CC12CCC(C1)C(C)(C)C2NC(=O)c1ccco1 (centres undefined)	3.7	.
N#CC(C#N)=C(C#N)c1ccc(N(c2ccccc2)c2ccccc2)cc1	3.7	-5
O=C(Oc1ccc2c(=O)c(-c3ccccc3)coc2c1)N1CCOCC1	0.6	11
Nc1ccc2nc(SCC(=O)c3ccc(F)cc3)sc2c1	-1.6	5
CCc1ccc(C(=O)CSc2cccc[n+]2[O-])cc1	-0.7	-20
S=c1[nH]nc(-c2cccnc2)n1C1CCCCC1	-0.6	2
O=C(CC(C(=O)O)c1cccc(Cl)c1)c1ccccc1 (centres undefined)	2.1	.
CCCCNC(=O)CC1N=C2c3ccccc3N=C(SCC(=O)N3CCN(c4ccccc4)CC3)N2C1=O (centres undefined)	.	21
COC(=O)Cn1c(C)nc2ccccc21	2.0	0
c1cncc(-c2nc3ccccc3s2)c1	-1.4	.
CC(c1ccc(-n2cncn2)cc1)N(C)c1ncnc2sc3c(c12)CCCC3 (centres undefined)	.	1
CC(=O)Nc1ccccc1OC(=O)c1sc2ccccc2c1Cl	-0.7	-3
CCc1ccccc1NC(=O)N1CCCC1C(=O)O (centres undefined)	.	9
O=C(NC1CCCC1)c1cccc(S(=O)(=O)N2CCCC2)c1	-1.4	-6
CCOC(=O)c1cnc(SCc2ccc(C)cc2)nc1C(F)(F)F	-1.9	.
COC(=S)Nc1ccc(F)cc1	-1.4	.

(continued)
canonical_smiles	MgrA-DNA mod	S aureus helic
CN1C(=O)/C(=C2\SC(N3CCCCCC3)=NC2=O)c2ccccc21	5.2	43*
COc1ccc(CCNC(=O)c2ccc3noc(-c4ccccc4)c3c2)cc1OC	.	7
O=C(NCc1ccco1)C1CCN(c2nc3ccccc3n2Cc2cccc(F)c2)CC1	0.6	18
C=CCN1C(=O)/C(=C\c2cccs2)S/C1=N/c1nnc(CC)s1	2.0	.
CC(NCc1cccs1)C(=O)Nc1ccc(S(=O)(=O)N2CCCC2)cc1 (centres undefined)	.	7
Cc1nc(-c2ccc(-n3nncc3-c3cccs3)cc2)cs1	.	-9
CC(=O)N1CCOc2cc(S(=O)(=O)N(C)Cc3ccccc3)ccc21	-1.4	0
NC(=O)COC(=O)c1ccc(O)cc1	.	8
COc1cccc(NC(=O)CNCC(O)c2ccccc2)c1 (centres undefined)	.	19
COc1cccc(-n2c(C)nc3c(cnn3-c3ccc(Cl)cc3)c2=O)c1	0.2	9
O=C(O)CSc1nnc2n(CCOc3ccccc3)c3ccccc3n12	.	13
CC(C(=O)Nc1cccc(C#N)c1)N(C)CC(=O)Nc1ccc(Cl)cc1 (centres undefined)	.	0
O=C(Cc1ccc2c(c1)OCCO2)NCc1ccco1	.	-16
Cc1c(S(=O)(=O)C(C)C)c(N)n(Cc2ccc(Cl)cc2Cl)c1C	.	-9
CSc1n[nH]c(C23CC4CC(CC(C4)C2)C3)n1	-2.5	.
CCc1ccc(C2C(C#N)=C(N)OC3=C2C(=O)CCC3)cc1 (centres undefined)	-2.3	1
CC1CCCC(C)N1C(=O)CSc1ccc(-c2ccc3c(c2)OCCO3)nn1 (centres undefined)	13	4
CCNc1nc(C)nc2sc(CC)cc12	-0.7	-13
COC(=O)c1c(C)nn(CCC#N)c1N	.	-5
CC1Cc2ccccc2N1C(=O)COc1ccc(C(=O)c2ccc(F)cc2)cc1 (centres undefined)	-0.2	-5
CCCCN1C(=O)C2ON(c3ccc(Cl)cc3)C(c3ccccc3)C2C1=O (centres undefined)	.	-11
CCOc1ccccc1C(=O)N1CC(C)N(C(=O)c2ccccc2OCC)CC1C (centres undefined)	3.1	1
COC(=O)c1ccc(CSc2nc3ccncc3n2CC(=O)N2CCCC2)cc1	.	-4
N#Cc1sc(C(N)=O)c2c1CCCC2	-1.2	.
CC1CCCC(C(=O)OCc2ccccc2)N1 (centres undefined)	.	-2
Cc1nonc1NC(=O)CNC1CCCCC1	-0.7	-6
c1ccc(Cn2ncc3c2ncn2nc(-c4ccncc4)nc32)cc1	0.6	-3
Cc1c(S(=O)(=O)c2ccc(Cl)cc2)cnc2cc(C(C)(C)C)nn12	-3.2	.
COc1ccc(C2C(C#N)=C(N)OC3=C2C(=O)CC(C)(C)C3)cc1COc1ccccc1C (centres undefined)	-0.7	.
CC(=O)Nc1cccnc1	4.5	-7
C#CCNCc1ccccc1	2.4	3
FC(F)(F)CN(Cn1nc(-c2ccco2)oc1=S)Cn1nc(-c2ccco2)oc1=S	.	-16
CCCOc1ccc(C2Oc3ccccc3C3CC(c4cccc5ccccc45)=NN32)cc1 (centres undefined)	2.3	.
N#Cc1cnn2c(-c3ccc(Cl)cc3Cl)ccnc12	-1.1	.
CC1=NN(c2ccccc2)C(=O)/C1=C\c1c(O)n(-c2ccc(F)cc2)[nH]c1=O	.	25
Cc1ccc(SCCC(=O)N2CCCC2)cc1	-1.8	-5
Cc1ccc(-n2c(C)cc(C(=O)CSc3nnc4ccccn34)c2C)cc1	2.5	8
O=C(CCCN1C(=O)c2ccccc2C1=O)NCc1ccccc1	.	0
N#CCSc1nc2ccc(Cl)cc2[nH]1	2.9	-1
Cc1cc(NC(=O)c2cccc(-n3cnnc3)c2)no1	0.4	9
CCOC(=O)COc1ccc(S(=O)(=O)NCc2ccncc2)cc1	.	8
CC(C)CNS(=O)(=O)C1CCS(=O)(=O)C1 (centres undefined)	-0.9	5
Cc1cc(Cl)c2ccccc2[n+]1[O-]	-0.1	6
O=C(Cc1csc(N2CCOCC2)n1)N/N=C/c1ccc(F)cc1	.	-6
CN(Cc1ccccc1F)C(=O)CCCn1c(=O)oc2ccccc21	.	-12
Cc1cc(C)c2oc(-c3cc(N)ccc3Cl)nc2c1	.	-69
O=C(O)CCc1nnc2ccc(N3CCC4(CC3)OCCO4)nn12	.	6
COc1cccc(NC(=O)CSc2nc(N)cc(=O)[nH]2)c1	-0.2	15
O=C1CCCCC1C1(O)C(=O)Nc2ccccc21 (centres undefined)	.	0
CCOC(=O)C1=C(C)NC(=S)N(C(C)=O)C1c1cccs1 (centres undefined)	-2.6	.
N#Cc1cccc(C(=O)Cc2cccc(Oc3ccccc3)c2)c1	-0.9	.
COc1cccc(NC(=O)COC(=O)C2CCCCC2)c1	3.2	-11
C=C1Cn2c(nnc2-c2ccc(Br)cc2)S1	.	-21
FC(F)(F)Oc1ccc(OCc2n[nH]c(=S)o2)cc1	-1.4	.
COC(=O)c1sc(-n2cccc2)c(C(=O)OC)c1C	.	13
O=C(c1cc(-c2ccc(O)cc2)on1)N1CCCCC1	.	5
CN(C)c1nc(NCCO)c2cnn(C)c2n1	.	11
CC1(C)CC(=O)/C(=C/c2ccccc2)C(C)(C)N1	1.4	6
CN(C(=O)c1cccc(OC(F)F)c1)C1CCCCC1	.	-9
COC(=O)c1c(-c2c(Cl)cccc2Cl)noc1C(=O)NN	-0.7	.

Exported with two lines to a compound: part of the list above.
Sequence of screens: MgrA-DNA mod | S aureus helic
> N#Cc1cnn2c(-c3ccc(Cl)cc3Cl)ccnc12
    -1.1 | .
> CC1=NN(c2ccccc2)C(=O)/C1=C\c1c(O)n(-c2ccc(F)cc2)[nH]c1=O
    . | 25
> Cc1ccc(SCCC(=O)N2CCCC2)cc1
    -1.8 | -5
> Cc1ccc(-n2c(C)cc(C(=O)CSc3nnc4ccccn34)c2C)cc1
    2.5 | 8
> O=C(CCCN1C(=O)c2ccccc2C1=O)NCc1ccccc1
    . | 0
> N#CCSc1nc2ccc(Cl)cc2[nH]1
    2.9 | -1
> Cc1cc(NC(=O)c2cccc(-n3cnnc3)c2)no1
    0.4 | 9

Next part:
canonical_smiles	MgrA-DNA mod	S aureus helic
COc1ccc(CCN2CNc3c(c(=O)n(C)c(=O)n3C)C2)cc1OC	-2.3	.
O=C(/C=C/c1ccccc1)NCCc1nc2ccccc2[nH]1	-0.8	-5
Cc1cc(C)nc(Nc2ccc(S(N)(=O)=O)cc2)n1	-4.3	0
O=C1CCCc2cc(S(=O)(=O)NCc3cccnc3)ccc2N1	.	-2
O=c1c(O)c(-c2cc(O)c(O)c(O)c2)oc2cc(O)cc(O)c12	1.0	.
COc1ccc(-c2nnn(-c3cc(Cl)cc(Cl)c3)c2N)cc1	-0.3	.
CCn1c(NCCCO)nc2ccccc21	0.0	2
O=C(Cn1c(=O)oc2ccccc21)Nc1cccnc1	.	5
COC(=O)c1sccc1NC(=S)N1CC(C)CC(C)C1 (centres undefined)	-0.2	4
CC1=C(C(=O)N(CC2CC=CCC2)CC2CCCO2)C2(CCCCC2)OC1=O (centres undefined)	-0.8	17
CCOC(=O)C1CCCN(C(=O)c2cc3c(C)nc4ccccc4c3o2)C1 (centres undefined)	-0.9	10
CCc1cccc(C)c1NC(=O)CC(C)(C)CC(=O)O	-1.7	.
CCN(CC)S(=O)(=O)c1ccc(-c2nnc(SCC(=O)Nc3nc4ccccc4s3)o2)cc1	0.2	4
CC(C(=O)Nc1ccccc1)C(=O)Nc1ccccc1	-1.6	10
Clc1ccc(-c2ccnc3ncnn23)cc1Cl	-0.4	.
O=C(CO)Nc1cc(Cl)ccc1Cl	.	22
O=C([C@@H]1CCCN1S(=O)(=O)c1ccc(Cl)cc1)N1CCN(c2ccccc2)CC1	.	16
